Screening data as filed in PubChem.
SmPrx2 inh = Schistosoma mansoni Prx2 inhibition | AID 448 | Potency, µM | hit rate 0.07% among 65,000 | S. mansoni Prx2 activity coupled to TGR/GSH (TGR is thioredoxin glutathione reductase), NADPH fluorescence loss, qHTS; some inactives read as strong as hits; active means full or partial inhibition curve with a strong effect at the top dose; inconclusive means weaker partial or single-point curve; inactive means no accepted curve; note: series up to 57 µM; many of its hits are not listed in these tables
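Enzyme mix: 100 uM NADPH, 25 nM TGR, 700 uM GSH, 50 nM Prx2 in 100 mM phosphate pH 7.4, 10 mM EDTA, 0.01% Tween-20. 15 min RT with compound; NADPH/GSH added, H2O2 starts reaction; NADPH fluorescence read 8 min.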
Anthrax LT inh = blocks cellular internalization of anthrax lethal toxin | Cells, anthrax lethal toxin internalization, FRET ratio (460/530) | Potency, µM (series often up to 40 µM), for inactives: at the highest dose activity change, negative = inhibition, actives largely listed as inhibitors | hit rate 0.67% among 70,000 | AID 912; active = well fitted falling ratio curve with the 530 nm signal flat; inconclusive = other ratio curves, or a change in one channel alone; inactive = flat curves in the ratio and both channels; the % refers to the ratio; note: % is set by controls: 0 for no effect and ±100 for the full control effect; nearly all actives have a fitted effect of over 50% in size; tested in ME-180 cells; beta-lactamase reporter
Numbers without * were called inactive; ? = inconclusive; nt = not tested or not shown; & = joins results of further samples; [ ] = remark or other dose. Potency is the fitted concentration of half-maximal effect. Some of the compounds tested (hit frequency here may not be typical).

SMILES,SmPrx2 inh,Anthrax LT inh
Cc1ccc2cc3cc(C(=O)NCCN4CCOCC4)oc3nc2c1,>57,2%
O=C1CC(c2nc3ccccc3[nH]2)CN1c1ccccc1F (centres undefined),>57,10%
Cc1cc(NC(=O)CSc2nc3c(c(=O)n2CCc2ccccc2)SC(C)C3)no1 (centres undefined),>57,-3%
COc1ccc(C(c2nnnn2C2CCCCC2)N2CCN(c3ccccc3)CC2)cc1 (centres undefined),>57,?
COc1ccc(NC(=O)CSc2nnc(CNC(=O)c3ccco3)o2)c(OC)c1,>57,13%
CN1CCN(S(=O)(=O)c2ccc(Br)s2)CC1,>57,-9%
O=C(Nc1cccc2c1CCCC2)C1CCN(C(=O)NC2CCCCC2)CC1,>57,-25%
CCOC(=O)c1c(C)c(C(=O)NCC2CCCO2)c(C)n1CC (centres undefined),>57,-5%
CC(=O)c1ccc(OC(=O)c2ccc(Br)o2)cc1,nt,3%
CCCCN(C(=O)NC(=O)Nc1ccccc1OCC)S(C)(=O)=O,>57,-4%
Cc1ccc(NC(=O)C2CCCN2S(=O)(=O)c2ccc(F)cc2)c(C)c1 (centres undefined),>57,?
CCC(Oc1ccccc1)C(=O)Nc1nc2ccccc2[nH]1 (centres undefined),>57,1%
Nc1ccc([N+](=O)[O-])cc1[N+](=O)[O-],nt,-4%
Cn1cnnc1SCc1ccc(C#N)cc1,>57,17%
CC(=NCC1CCCO1)c1c(O)n(-c2ccc(Cl)cc2)c(=O)[nH]c1=O (centres undefined),>57,?
C/C(CCN1CCc2nc(-c3ccccc3)c(-c3ccccc3)cc2C1)=N\OC[C@@H](C)[C@H](OCc1ccccc1)C(C)C,nt,10%[0.32 µM]
CCOC(=O)NCc1ccc(Cl)c(Cl)c1,>57,?
Cc1ccc(C(C)C)c(OCCNS(C)(=O)=O)c1,>57,-9%
Cc1cc(C(=O)Nc2nc3c(s2)CCCC3)no1,>57,4%
Cn1nc(-c2ccc(C(=O)Nc3cccnc3)cc2)c2ccccc2c1=O,>57,-1%
Cc1nc(N)c(C#N)c(-c2cccnc2)c1C,>57,nt
O=C(SCc1cccc2ccccc12)c1ccc(Cl)cc1,>57,-10%[8 µM]
CC(Oc1ccc(Cl)cc1Cl)c1nc(-c2ccccn2)no1 (centres undefined),nt,-25%
CCn1c(SCC(=O)NCCOC)nc2sc3c(c2c1=O)CCCC3,>57,-7%
Cn1c(=O)c2c(nc(Br)n2C)n(C)c1=O,>57,-4%
CCC(C)Nc1nc(OCC(F)(F)F)nc(OCC(F)(F)F)n1 (centres undefined),>57,-13%
Cc1ccc2c(c1)cc(CN(Cc1ccco1)C(=O)COc1ccccc1)c1nnnn12,>57,-29%
Brc1ccc(-c2cnc(-c3cccs3)o2)cc1,>57,-29%
COc1ccc(-c2cc(C(=O)Nc3ccc(C)cc3)no2)cc1,>57,12%
Cc1ccc(C)c2[nH]c(=O)c(C(c3nnnn3Cc3ccco3)N3CCc4ccccc4C3)cc12 (centres undefined),>57,?
O=C(C1CCN(S(=O)(=O)c2cccc3cccnc23)CC1)N1CCN(C2CCCC2)CC1,>57,27%
O=C(COC(=O)c1ccc(Br)o1)NCCCc1ccccc1,>57,-4%
Nc1nnnn1/N=C/c1ccccc1OCc1ccc(Cl)cc1Cl,>57,2%
CN(C)c1ccc(C2C=C(c3ccc(Cl)cc3OC(F)F)Nc3ncnn32)cc1 (centres undefined),>57,?
Cc1nnc(SCC(=O)N2CCC(C(=O)Nc3nccs3)CC2)n1Cc1ccccc1,>57,-4%
O=C(O)/C=C/c1cccc(B(O)O)c1,nt,6%
Cn1c(=O)oc2cc(S(=O)(=O)N3CCC(C(=O)NCc4cccs4)CC3)ccc21,>57,-2%
c1ccc(N2CCN(c3ncnc4c3oc3ccccc34)CC2)cc1,>57,16µM*
O=C(Nc1cccc(OC(F)(F)F)c1)c1ccc(Br)o1,>57,?
CN(C)CCNC(=O)c1coc(=O)c(Br)c1,>57,-10%
CC(C)NC[C@@H](O)COc1ccc(COCCOC(C)C)cc1,>26&>57,-7%
CCC(=O)Nc1nonc1-c1nc2ccccc2n1CC(C)C,>57,6%
[O-][Br+2]([O-])O,nt,9%&1%
COc1ccc(CN2CCN(C)CC2)cc1OCc1ccccc1,>57,1%
Cc1nc2[nH]c(=O)c3c(n2n1)NC1=C(C(=O)CC(C)(C)C1)C3c1ccc(F)cc1 (centres undefined),>57,nt
C=CCn1c(NCCc2ccccc2)nc2c1c(=O)n(C)c(=O)n2C,>57,?
O=C(Cc1cccs1)Nn1c(Cc2cccs2)nc2ccccc2c1=O,>57,-14%
c1ccc(CC2CCN(Cc3nc(-c4ccccc4)no3)CC2)cc1,>57,-28%
O=C(Cn1c(=O)oc2ccccc21)c1ccccc1,>57,0%
CN(C)/C=C1/C(=O)Nc2ccccc21,>57,2%
CC(C)(C)OC(=O)N[C@H](Cc1ccccc1)C(=O)N1CCC(C(=O)O)CC1,>57,nt
CCN(C(=O)CSc1ccc2c(c1)OCCO2)C1CCS(=O)(=O)C1 (centres undefined),>57,7%
CCCn1cc(SCC(=O)NCc2ccco2)c2ccccc21,>57,-21%
CC1(C)Cc2cccc(OCC(O)CN3CCN(c4ccccn4)CC3)c2O1 (centres undefined),>57,2%
Nc1ncnc2nc(SCC(=O)N3CCN(c4ccccc4)CC3)[nH]c12,>57,13%
COc1ccc(Cc2nnc(SCc3nc4ccccc4c(=O)[nH]3)n2C)cc1,>57,-4%
CC(C)c1cc(C(=O)NC2CCCCC2)no1,>57,6%
CCN1CCN(Cc2nc3c(c(=O)n(C)c(=O)n3C)n2CCCc2ccccc2)CC1,>57,?
COc1ccc(-c2cc(C(F)(F)F)n3nc(C(=O)O)nc3n2)cc1,>57,2%
CC(C)(C)c1cc(C(=S)N2CCN(CCO)CC2)cc(C(C)(C)C)c1O,>57,-14%

More compounds follow.
SMILES,SmPrx2 inh,Anthrax LT inh
CC1(C)Cc2c(C#N)c(N)sc(=S)c2CS1,>57,-18%
Cc1ccccc1-c1nccc(NCCN2CCOCC2)n1,>57,-9%
CC(C)(C)NC(=O)[C@@H]1CC[C@@H]2[C@@H]3CC[C@@H]4NC(=O)C=C[C@@]4(C)[C@H]3CC[C@]21C,>57,-9%[3.58 µM]
CC(=O)Nc1ccc(S(=O)(=O)NCc2csc(-c3cccnc3)n2)cc1,>57,-5%
O=C(c1ccco1)N1CCC2(CC1)CN(C(c1ccccc1)c1ccccc1)C2,>11,4%
CC(N)=NCc1cccc(CN)c1,>57&>57,?
Cc1cc(N=Nc2ccccc2C)ccc1N,nt,?
COC(=O)c1c(NC(=O)CN2CCC(C(N)=O)CC2)c2c(C)cccc2n1C,>57,?
O=C(CC1Nc2ccccc2NC1=O)NCC1COc2ccccc2O1 (centres undefined),>57,13%
Cc1ccc(C)c(N)c1,nt,?
CC(=O)NC(C)(C)C1CC=C(C)/C(=N\O)C1 (centres undefined),nt,-5%
C[C@@](N)(/C=C\c1ccccc1)C(=O)O,>57,8%[8 µM]
Cc1cc(C)c(O)c(-c2cc(C(=O)Nc3ccc(S(=O)(=O)N4CCOCC4)cc3)[nH]n2)c1,>57,?
Cc1ccc(-n2nnnc2SCC(=O)c2c(N)n(CC(C)C)c(=O)n(C)c2=O)cc1,>57,-13%
CCOC(=O)c1c(C)n(CCO)c2ccc(O)cc12,>57,16%
CC1(C(=O)NC2CCCCCC2)CCC(=O)N1Cc1ccc2c(c1)OCO2 (centres undefined),>57,-2%
CCn1c(SCC(=O)NCC2CCCO2)nc2c(c1=O)SC(C)C2 (centres undefined),>57,-3%
Cc1noc(C)c1C(=O)Nc1nc(C23CC4CC(CC(C4)C2)C3)cs1,>57,10µM*
O=C1NC(c2ccc3c(c2)OCO3)Nc2ccccc21 (centres undefined),>57,-13%
N[C@@H](Cc1c[nH]c2cc([N+](=O)[O-])ccc12)C(=O)O,>57,-16%[8 µM]
CCN(Cc1cc2cc(C)ccc2[nH]c1=O)S(=O)(=O)c1ccccc1,>57,6%
Cn1c(C(=O)O)c(CC(=O)N2CCN(Cc3ccccc3)CC2)c2ccccc21,>57,8%
COC(=O)CSC1=C(C#N)C(c2ccccc2)CC(=O)N1 (centres undefined),>57,6%
C=CCNS(=O)(=O)c1ccc(OCC(=O)OCC)cc1,>57,0%
N#Cc1c(/N=C/c2cccs2)sc2c1CCC2,>57,-5%
CC1Cc2ccccc2N1C(=O)Cn1nc(C(=O)O)c2ccccc2c1=O (centres undefined),>57,?
Cc1cc(NC(=O)c2cc(-c3ccco3)on2)nn1Cc1ccc(Cl)cc1,>57,-24%
COc1ccc(C(=O)NCc2ccccc2OC)c(OC)c1,nt,-7%
CC(C)NCC(O)Cn1c2c(c3ccccc31)CCc1c-2cnn1-c1ccccc1 (centres undefined),>57,-19%
COc1ccccc1-n1cnnc1SCC(=O)c1cc(C)n(Cc2cccs2)c1C,>57,-6%
Cc1ccnc(NC(=O)CCC(=O)N(CC(=O)NC2CCCCC2)Cc2ccc3c(c2)OCO3)c1,>57,-1%
Cc1onc(-c2ccccc2)c1C(=O)Nc1cccc2nsnc12,>57,?
CCOC(=O)c1c(-c2ccc(C)s2)csc1NC(=O)c1ccco1,>57,1%
O=C(CCCN1C(=O)CCC1=O)Nc1ccc2c(c1)OCO2,>57,?
Cc1cc(C(=O)Nc2cccc(O)c2)co1,nt,8%
CCOC(=O)C1CCCN(C(=O)C2CCN(c3nnc(-n4cccc4)s3)CC2)C1 (centres undefined),>57,-3%
Cc1nc2sc3c(c2c(=O)o1)CCC3,>57,5%
Cc1ccc(-c2cc(C(=O)Nc3cccnc3)c3ccccc3n2)o1,nt,19%
O=C(Nc1cccc(O)c1)c1cccc(S(=O)(=O)N2CCCC2)c1,>57,4%
O=C(NCC1CCCO1)c1ccc(/C=N/O)nc1 (centres undefined),>57,-3%
COc1ccc(NC(=O)N2CCCC3(CCN(C(=O)c4ccc(OC)cc4)CC3)C2)cc1,>57,7%
COc1ccccc1NC(=O)c1sc2nc(-c3ccco3)ccc2c1N,>57,8%
CCCn1c(=NC(C)=O)c(C(=O)OCC)cc2c(=O)n3ccccc3nc21,>57,10%
CC(C)COC(=O)C1C2C=CC3(CN(C4CCCC4)C(=O)C13)O2 (centres undefined),>57,3%
O=C1CCCC2=C1C(c1ccsc1)CC(=O)N2c1ccccc1 (centres undefined),>57,2%

5 entries from above, with two lines to a compound.
The line under a structure holds: SmPrx2 inh	Anthrax LT inh
COc1ccc(Cc2nnc(SCc3nc4ccccc4c(=O)[nH]3)n2C)cc1
  >57	-4%
CC(C)c1cc(C(=O)NC2CCCCC2)no1
  >57	6%
CCN1CCN(Cc2nc3c(c(=O)n(C)c(=O)n3C)n2CCCc2ccccc2)CC1
  >57	?
COc1ccc(-c2cc(C(F)(F)F)n3nc(C(=O)O)nc3n2)cc1
  >57	2%
CC(C)(C)c1cc(C(=S)N2CCN(CCO)CC2)cc(C(C)(C)C)c1O
  >57	-14%

Other compounds:
SMILES,SmPrx2 inh,Anthrax LT inh
O=C1CCCc2c1[nH]c1c(Br)cccc21,nt,-27%
N=c1c(C(=O)NCc2ccccc2)cc2c(=O)n3ccccc3nc2n1CCCN1CCOCC1,>57,?
C=CCn1cc(Cl)c(=O)n(CC=C)c1=O,>57,-7%
Cn1c(CCN2CCCCC2)nc2cc(NC(=O)NC3CCCCC3)ccc21,>57,-3%
CCN(C(=O)CN1CCCc2ccccc21)c1c(N)n(Cc2ccccc2)c(=O)[nH]c1=O,>57,-5%
COc1ccc(OC)c(S(=O)(=O)Nc2ccc(OCC(=O)O)cc2)c1,>57,6%
COCC(=O)N1CCC2(CCN(Cc3ccc(C#N)cc3)CC2)CC1,>57,5%
Cc1ccc(S(=O)(=O)N2CCN(S(=O)(=O)N(C)C)CC2)cc1,>57,-10%
N#Cc1nc(-c2ccco2)oc1NCc1ccco1,>57,nt
Oc1ccccc1CNc1nc2ccccc2n1CCN1CCCCC1,>57,?
CC(C)Oc1ccc(N2CC(C(=O)Nc3ccc4c(c3)OCO4)CC2=O)cc1 (centres undefined),>57,-2%
O=C(CSCc1nc2ccccc2[nH]1)N1CCN(c2cccc(Cl)c2)CC1,>57,-51%
Cc1cc(NC(=O)CS(=O)(=O)c2cn(Cc3cccc(F)c3)c3ccccc23)no1,>57,-7%
CCC(SCC(=O)OC)C(=O)Nc1nnc(C(C)C)s1 (centres undefined),>57,8%
CCC(=O)Nc1cc(C)c(NC(=O)CCc2ccccc2)cn1,>57,2%
Cc1cccc(NC(=O)CSc2nnc(-c3ccccc3)n2N)c1,>57,?
COC(=O)CCN(C(C)=O)c1ccc(N)cc1,>57,nt
C[C@@H](CCc1ccccc1)NC[C@H](O)c1ccc(O)c(C(N)=O)c1,>57&>57,-4%[3.58 µM]
